# Screens: PubChem, ICCB-Longwood Screening Facility, Harvard Medical School
# Sa growth 42C: S. aureus growth inhibition at 42 and 30 °C, primary screen, LtaS inhibitor project, RN4220, two temperatures | relative growth, % (concentration not given with the values) | actives 0.53% (n = 170,000) | OD600, 20 h, 42 °C; hits give low values | AID 720641, 2013;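 active means growth at 42 °C up to 50% and 20 or more points under that at 30 °C, or under 10% at both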;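 further: 300 nL library stock went into each well; scaled to the means of positive and negative controls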
# HCMV NEC inh: inhibitors of HCMV UL50-UL53 interaction, biochemical, HTRF | HCMV UL50-UL53 nuclear egress complex (human cytomegalovirus) | normalized percent inhibition | inhibition, % (test concentration not listed) | actives 0.15% (n = 190,000);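 active means both replicates at 50% or more, plus weaker picks with an unusually low signal ratio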;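 further: stock transfer was 100 nL into about 20 µL; 0% = negative control wells and 100% = wells with untagged competitor protein; inactives centre near -12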
# GIV-Gai inh: inhibitors of GIV peptide binding to Galpha-i3, primary screen, biochemical, fluorescence polarization, FITC-GIV GBA peptide, rat Galphai3. Guanine nucleotide-binding protein G(i) subunit alpha-3 (Rattus norvegicus), P08753. 90 min; hits give low values; scaled: aluminum fluoride 0%, vehicle 100%. percent of control (FP), % (no concentration beside the values). actives 0.42% (n = 210,000). AID 1224905, 2016;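 active means replicate mean at 85% of control or lower, very high polarization wells dropped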;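 further: wells of about 15 µL received 100 nL stock; the first replicate is given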
# Target sequence (P08753 whole entry, looked up): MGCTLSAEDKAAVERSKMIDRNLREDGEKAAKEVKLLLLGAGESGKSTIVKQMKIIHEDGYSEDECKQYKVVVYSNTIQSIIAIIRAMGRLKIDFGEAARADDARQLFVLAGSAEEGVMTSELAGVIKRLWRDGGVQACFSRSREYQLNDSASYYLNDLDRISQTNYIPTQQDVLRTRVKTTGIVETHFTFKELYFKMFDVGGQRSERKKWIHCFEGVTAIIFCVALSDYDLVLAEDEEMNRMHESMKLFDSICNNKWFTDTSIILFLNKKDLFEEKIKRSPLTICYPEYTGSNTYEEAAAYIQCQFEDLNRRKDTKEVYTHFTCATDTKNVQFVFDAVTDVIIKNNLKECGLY
# Sa growth 42C second temp: also measured in Sa growth 42C; calls as there; relative growth, %; measured here: growth at 30 °C;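 optical density after 20 h as mean of two plates; 100% = untreated growth and lower means inhibition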
# Active calls of the source: *; . = not tested or not shown; & = joins results of further samples. Hits appear at their usual frequency; 0.82% or so of the library scored in one or more.
# Short forms – A = Sa growth 42C; B = Sa growth 42C second temp; C = HCMV NEC inh; D = GIV-Gai inh
> CN(Nc1ccccc1)C1=C(C#N)CN(C2CCCCC2)C1=O
  A: 95; B: 82; C: -2; D: .
> Cc1ccc(CNC(=O)c2ccc3c(c2)NC(=O)C(CS(=O)(=O)Cc2ccc(F)cc2)N3)cc1 (configuration not stated)
  A: 86; B: 84; C: .; D: 105
> O=C1c2ccccc2C(=O)N1CCCCn1nnc(-c2ccc(F)cc2)n1
  A: 101; B: 93; C: -14; D: .
> Cn1nnc2c(N3CCN(c4cccc(Cl)c4)CC3)ncnc21
  A: 101; B: 86; C: .; D: 94
> CCN(CC)S(=O)(=O)c1ccc2c(c1)c(=O)c(C(=O)N(C)Cc1ccccc1)cn2C
  A: 109; B: 89; C: -19; D: 107
> CC1CCCCN1S(=O)(=O)c1ccc(N)cc1 (configuration not stated)
  A: 87; B: 100; C: -6; D: .
> COc1cc(-c2n[nH]c(=S)n2C)cc(OC)c1OC
  A: 108; B: 73; C: -1; D: 104
> COc1ccccc1-n1c(SCC(=O)Nc2ccc(C)cc2)nc(O)cc1=O
  A: 116; B: 86; C: 3; D: 102
> CCOC(=O)c1c(N)n(-c2ccc(OCC)cc2)c2nc3ccccc3nc12
  A: 117; B: 93; C: .; D: 100
> Cc1cc(C(=O)Nc2ccc(O)c(-c3nc4ccccc4s3)c2)ccc1[N+](=O)[O-]
  A: .; B: .; C: -18; D: 97

# (more compounds)
# Short forms – A = Sa growth 42C; B = Sa growth 42C second temp; C = HCMV NEC inh; D = GIV-Gai inh
> Cc1cc([N+](=O)[O-])c2[nH]c3c(c2c1)CCNC3=O
  A: .; B: .; C: -64; D: 106
> CC(C)NS(=O)(=O)c1ccc2c(c1)CCN2C(=O)CCC(=O)N1CCCC1
  A: .; B: .; C: -39; D: 99
> Cc1cc(C)c2oc(C(=O)Nc3ccc(S(=O)(=O)N(C)c4ccccc4)cc3)cc(=O)c2c1
  A: 114; B: 87; C: -19; D: 98
> CCOc1cc(-c2ccccc2)nc2ccc(C(=O)Nc3ccc(OC)c(OC)c3)cc12
  A: .; B: .; C: -27; D: 107
> Cc1nc2nc(N(Cc3cccc(F)c3)S(=O)(=O)c3ccc(Cl)cc3)nn2c(C)c1Cl
  A: .; B: .; C: -11; D: 107
> O=C(/C=C/C=C/c1ccc2c(c1)OCO2)N1CCCCC1
  A: 103; B: 96; C: -60&-49; D: .
> Cc1ccccc1CNC(=O)c1cc2cc(S(=O)(=O)N3CCCCC3)ccc2n1C
  A: 72; B: 87; C: .; D: 98
> CNC(=O)COc1ccccc1C(F)(F)F
  A: 100; B: 102; C: -30; D: 108
> CCOc1ccccc1C(=O)NC(C(=O)OC)C(C)C (configuration not stated)
  A: 89; B: 93; C: 0; D: .
> O=C(CNc1cccc(C(F)(F)F)c1)N/N=C/c1ccc2c(c1)OCO2
  A: 88; B: 90; C: -23; D: .

# (continued)
# Short forms – A = Sa growth 42C; B = Sa growth 42C second temp; C = HCMV NEC inh; D = GIV-Gai inh
> O=C1C=C(NCc2ccco2)CCC1
  A: 87; B: 78; C: 22; D: .
> COC(=O)c1ccc(N2CCc3cc4ccc(C)cc4nc32)cc1
  A: 97; B: 97; C: 5; D: 102
> O=c1nc(NC2CCCCC2)cn[nH]1
  A: 83; B: 88; C: -35; D: 101
> CC(Sc1nc2cc(Cl)ccc2c(=O)n1C(C)C)C(=O)Nc1ccc(N2CCOCC2)cc1 (configuration not stated)
  A: 103; B: 93; C: 13; D: .
> O=C(c1cc(-c2ccc3c(c2)OCCO3)on1)N(Cc1ccc(Cl)cc1)C1CCS(=O)(=O)C1 (configuration not stated)
  A: .; B: .; C: -20; D: 97
> Cc1ccccc1S(=O)Cc1ccc(C(=O)NC2CCCCCC2)o1 (configuration not stated)
  A: 109; B: 88; C: -19; D: 99
> COc1cccc(Cn2c(SCC(=O)N3CCN(c4ccc(F)cc4)CC3)nc3ccccc32)c1
  A: 107; B: 81; C: -29; D: 99
> Cc1ccc(NC(=O)C2CCCN(S(=O)(=O)c3ccc(C)cc3)C2)cc1 (configuration not stated)
  A: 89; B: 85; C: -27; D: 96
> CC(C)C(=O)Nc1ccc(-c2nc3cccnc3s2)cc1
  A: 102; B: 78; C: .; D: 102
> COc1ccc(C(=O)NC(C)C)cc1I
  A: 111; B: 100; C: -6; D: 105

# 3 records drawn at random from those above:
# Short forms – A = Sa growth 42C; B = Sa growth 42C second temp; C = HCMV NEC inh; D = GIV-Gai inh
> Cc1ccc(NC(=O)C2CCCN(S(=O)(=O)c3ccc(C)cc3)C2)cc1 (configuration not stated)
  A: 89; B: 85; C: -27; D: 96
> CC(Sc1nc2cc(Cl)ccc2c(=O)n1C(C)C)C(=O)Nc1ccc(N2CCOCC2)cc1 (configuration not stated)
  A: 103; B: 93; C: 13; D: .
> CCOC(=O)c1c(N)n(-c2ccc(OCC)cc2)c2nc3ccccc3nc12
  A: 117; B: 93; C: .; D: 100

# The list continues.
# Short forms – A = Sa growth 42C; B = Sa growth 42C second temp; C = HCMV NEC inh; D = GIV-Gai inh
> COc1cccc(C(=O)NCC2(c3ccccc3)CCCC2)c1
  A: 100; B: 93; C: -11; D: .
> O=C(COc1ccccc1)Nc1cccc(OCc2cc(=O)n3c4c(sc3n2)CCCC4)c1
  A: .; B: .; C: 8; D: 111
> COc1ccc(NC2=C(c3ccc(C(F)(F)F)cc3)C(=O)c3ccccc32)cc1
  A: 108; B: 91; C: -6; D: 102
> Cc1ccc2nc(N(CCCN(C)C)C(=O)c3ccc(Br)s3)sc2c1
  A: 156; B: 58; C: .; D: 110
> Cc1ccccc1-n1ccnc1SCC(N)=O
  A: 104; B: 99; C: -5; D: 108
> COc1c(C)cccc1C(=O)Nc1ccc(-c2nc3ccccc3s2)c(Cl)c1
  A: 80; B: 92; C: -29; D: 96
> Cc1ccc(Cn2c(C)c3cn[nH]c(=O)c3c2C)cc1
  A: 96; B: 83; C: .; D: 102
> O=C(c1ccccc1)N1c2nc(-c3ccco3)nn2C2(CCCCC2)[C@@H]2CCCC[C@@H]21
  A: 108; B: 89; C: -17; D: 100
> CCC(C)NC(=O)CN1C(=O)C=C(CC(=O)OC)Nc2cc(C)c(C)cc21 (configuration not stated)
  A: .; B: .; C: -41; D: 105
> Cc1cn2c(=O)c(S(=O)(=O)N3CCN(c4cc(Cl)ccc4C)CC3)c(C)nc2s1
  A: 104; B: 83; C: .; D: 105

# New compounds follow
# Short forms – A = Sa growth 42C; B = Sa growth 42C second temp; C = HCMV NEC inh; D = GIV-Gai inh
> CCOC(=O)CNC(=O)NCC(c1ccccc1)c1c[nH]c2ccccc12 (configuration not stated)
  A: .; B: .; C: -6; D: 100
> Cn1cc(S(=O)(=O)Nc2ccccc2N2CCOCC2)c(C(F)(F)F)n1
  A: 94; B: 85; C: -30; D: 101
> c1ccc2c(c1)NC1(CCCC1)n1c-2nc2ccccc21
  A: 89; B: 59; C: -14; D: .
> Cc1nc(NC2=NCN(CCCN3CCOCC3)CN2)nc2c(C)cccc12
  A: 78; B: 62; C: -34&4; D: 99&109
> CCCCNS(=O)(=O)c1cccc(C(F)(F)F)c1
  A: 110; B: 85; C: -16; D: .
> Cc1ccc(-n2ncc(C(=O)NCCN3CCOCC3)c2C2CCN(C(=O)OC(C)(C)C)CC2)c(C)c1
  A: 86; B: 82; C: .; D: 104
> COc1ccc(SCCC(=O)NCc2ccncc2)cc1
  A: 92; B: 89; C: -14; D: 98
> CCOc1ccc(-c2nc(C#N)c(NCCCN(CC)CC)o2)cc1
  A: 112; B: 91; C: .; D: 100
> O=C(NCCN1CCCc2ccccc21)c1cc(-c2cccs2)nc2ccccc12
  A: 129; B: 93; C: .; D: 106
> COc1ccc(-c2noc(N3CC(C)CC(C)C3)n2)cc1OC (configuration not stated)
  A: 101; B: 92; C: -14; D: 104

# Following part.
# Short forms – A = Sa growth 42C; B = Sa growth 42C second temp; C = HCMV NEC inh; D = GIV-Gai inh
> Brc1ccc2ncnc(N3CCCCCC3)c2c1
  A: 91; B: 83; C: -4; D: 108
> O=S(=O)(Nc1cccc(-c2ccc(N3CCCCCC3)nn2)c1)c1ccccc1F
  A: 90; B: 92; C: .; D: 104
> CCOC(=O)CC(=O)Cc1nc(N)nc(Nc2ccc(C)c(C)c2)n1
  A: 92; B: 72; C: .; D: 100
> COc1ccc(OC)c(CNC(=O)c2ccc(-n3nnc4cccnc43)cc2Cl)c1
  A: .; B: .; C: -40; D: 105
> Cn1nnnc1SCCCNCc1cc(Cl)ccc1OCc1ccccc1
  A: 109; B: 71; C: -39; D: 105
> Fc1cccc(F)c1CN1CCCCC1
  A: 87; B: 81; C: -19; D: 99
> COc1cc2c(=O)n(Cc3ccc(C(=O)NC4CCCC4)cc3)c(=O)n(Cc3ccc(Cl)cc3)c2cc1OC
  A: .; B: .; C: -18; D: 102
> COC(=O)CSc1nc2sc3c(c2c(=O)n1-c1ccc(C)cc1)CCCC3
  A: .; B: .; C: 10; D: 109
> CC(=O)NCc1n[nH]c(=O)c2ccccc12
  A: 93; B: 88; C: -19; D: 100
> O=c1c2c(nc(NCCCO)n1Cc1ccccc1)-c1ccccc1CC21CCCC1
  A: 77; B: 40; C: -1; D: 98

# Taken from the results shown (2 entries):
# Short forms – A = Sa growth 42C; B = Sa growth 42C second temp; C = HCMV NEC inh; D = GIV-Gai inh
> CN(Nc1ccccc1)C1=C(C#N)CN(C2CCCCC2)C1=O
  A: 95; B: 82; C: -2; D: .
> Cc1ccc(CNC(=O)c2ccc3c(c2)NC(=O)C(CS(=O)(=O)Cc2ccc(F)cc2)N3)cc1 (configuration not stated)
  A: 86; B: 84; C: .; D: 105

# A draw from above in order of heavy-atom count, smallest number first:
# Short forms – A = Sa growth 42C; B = Sa growth 42C second temp; C = HCMV NEC inh; D = GIV-Gai inh
> Fc1cccc(F)c1CN1CCCCC1
  A: 87; B: 81; C: -19; D: 99
> Brc1ccc2ncnc(N3CCCCCC3)c2c1
  A: 91; B: 83; C: -4; D: 108
> COC(=O)CSc1nc2sc3c(c2c(=O)n1-c1ccc(C)cc1)CCCC3
  A: .; B: .; C: 10; D: 109
> COc1ccc(OC)c(CNC(=O)c2ccc(-n3nnc4cccnc43)cc2Cl)c1
  A: .; B: .; C: -40; D: 105

# (continued)
# Short forms – A = Sa growth 42C; B = Sa growth 42C second temp; C = HCMV NEC inh; D = GIV-Gai inh
> C=CCNC(=O)c1ccccc1NC(=O)C1COc2ccccc2O1 (configuration not stated)
  A: 103; B: 74; C: -5; D: 101
> CN1C(=O)C(=Cc2ccc(-c3ccc([N+](=O)[O-])cc3Br)o2)C(=O)N(C)C1=S
  A: .; B: .; C: -25; D: 105
> Cc1cccc(-n2cnc3c(c2=O)c2nc4ccccc4nc2n3CCC(C)C)c1
  A: 111; B: 82; C: -77; D: 110
> CCOC(=O)N1CCc2c(sc3c2c(=O)n(Cc2ccccc2)c(=O)n3CC(=O)Nc2ccc(C)c(C)c2)C1
  A: 98; B: 89; C: -30; D: 103
> CCN(CC)c1cc(N(C)c2ccccc2)c([N+](=O)[O-])c2nonc12
  A: .; B: .; C: -36; D: 109
> Cc1ccc(C2=NS(=O)(=O)N(C)C(C(=O)Nc3cc(C)n(CC(=O)N4CCOCC4)n3)=C2)cc1
  A: 77; B: 79; C: -88; D: 101
> CCc1nn(Cc2cc(C)ccc2C)c(=O)c2cc3cc(C)ccc3n12
  A: 102; B: 97; C: -2; D: 93
> Nn1c(SCc2cc(=O)oc3cc(O)c(O)cc23)nnc1-c1ccncc1
  A: 68; B: 57; C: -100; D: .
> COc1ccc(Cl)cc1NC(=O)c1sc2nc(C)n(C)c(=O)c2c1C
  A: 87; B: 80; C: .; D: 101
> CC(=O)Nc1ccc(NC(NC(=O)c2cccs2)C(=O)c2ccccc2)cc1 (configuration not stated)
  A: 130; B: 91; C: .; D: 101

# New compounds follow
# Short forms – A = Sa growth 42C; B = Sa growth 42C second temp; C = HCMV NEC inh; D = GIV-Gai inh
> CCOC(=O)C(Cc1c[nH]c2ccccc12)NC(=O)CCCCCN1C(=O)c2ccccc2C1=O (configuration not stated)
  A: .; B: .; C: -16; D: 108
> Cc1ccc(-c2noc(CCCn3c(=O)[nH]c4cc5c(cc4c3=O)OCO5)n2)cc1
  A: .; B: .; C: 3; D: 113
> Cn1c(CSc2cccs2)nnc1SCC(=O)Nc1ccc(Cl)cc1
  A: 105; B: 74; C: -5; D: 103
> Cc1nnsc1C(=O)N1CCN(C=O)CC1
  A: 86; B: 84; C: -20; D: 98
> COc1ccc(C(=O)Nc2ccc3nc(SCC(=O)N(C)c4ccccc4)sc3c2)cc1
  A: 104; B: 90; C: 13; D: 98
> O=C(COc1ccc(-c2ccccc2)cc1)NCc1cccnc1
  A: 119; B: 71; C: -33; D: .
> Cc1nc(C(F)(F)F)ccc1C(=O)N1CCC(n2cccc2)CC1
  A: 99; B: 98; C: -15; D: 101
> COc1ccc(N2C(=O)C(O)=C(S(=O)(=O)c3ccccc3)C2c2ccc(Cl)cc2)cc1 (configuration not stated)
  A: .; B: .; C: -22; D: 96
> N#Cc1ccc(C#N)c(-c2ccccc2)c1
  A: 111; B: 83; C: 10; D: .
> Cc1ccc(S(=O)(=O)NC(=O)N2CCCC2)cc1
  A: 107; B: 88; C: -47; D: 98
> COc1ccccc1OC(=O)c1sccc1C
  A: 121; B: 90; C: -20; D: .
